NPYLR7 ag = activates Aedes aegypti NPYLR7 receptor; HEK293T NPYLR7/Galpha15, GCaMP6s calcium fluorescence; activation, % at 10 µM; 270,000 compounds, 0.15% hits; AID 1259423; in the data active = activation above about 40%;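 also: 0% = vehicle and 100% = reference agonist at the receptor; some compounds past the cut are filed as inactive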
NPYLR7 ag max-min = further read-out of NPYLR7 ag, marked with its call; activation, %; measured here: Max-Min RFU normalised activation; some inactives read as strong as hits;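 span of the calcium signal over five minutes; 0% = vehicle and 100% = native peptide agonist; compound fluorescence can raise it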
* = called active by the depositor; & = joins results of further samples.

cpd	compound	NPYLR7 ag	NPYLR7 ag max-min
1	CNC(=O)Cn1cc(-c2ccc(F)cc2Cl)cn1	1	2
2	CC1CN(C(=O)CCCSc2nnc(-c3ccccc3Cl)n2-c2ccccc2)CCN1C(=O)c1ccc(Br)cc1 (stereo not drawn)	-3	7
3	CCOC(=O)N1CCN(C(c2cccnc2)c2c(O)cc(C)n(CC)c2=O)CC1 (stereo not drawn)	5	0
4	O=C(NC(=O)C(F)(F)F)Nc1nncs1	1	1
5	Cc1nc2c(c(N3CCCC3)n1)CCN(C(=O)C(=O)N1CCOCC1)C2	22	6
6	O=C(Cn1cnc([N+](=O)[O-])n1)NCc1ccc(Cl)cc1	-6	-9
7	CCn1cc(C(=O)N2CCN(CC(=O)NCCOC)CC2)c2nn(-c3ccccc3)c(=O)c-2c1	-1	-5
8	CCOC(=O)c1ccc(N2CCn3c2nc2c3c(=O)n(CCOC)c(=O)n2C)cc1	21	14
9	Cc1ncoc1C(=O)N1CCC(c2n[nH]c(=O)n2Cc2ccccc2)CC1	9	2
10	O=C(Nc1ccc(F)c(Cl)c1)c1cccn(OCc2ccc(F)cc2)c1=O	1	-1
11	CCc1nc2n(n1)C(=O)C(C(c1ccc(C(C)C)cc1)N1CCN(CC)CC1)S2 (stereo not drawn)	-3	-8
12	CC(=O)N1CCN(C(=O)c2c(C)c(C)c(C)n2Cc2cccc(C)c2)CC1	21	26
13	Cc1c(Cc2ccccc2)c(=O)oc2cc(OCC(N)=O)ccc12	-4	-3
14	O=C(Nc1ccc(Cl)cc1C(F)(F)F)c1cccn(OCc2ccccc2)c1=O	11	10
15	CN(C)c1ccc(CN(CC2CCCO2)S(=O)(=O)c2cccs2)cc1 (stereo not drawn)	6	-2
16	COc1cc(C=C(C#N)S(=O)(=O)c2ccc(Br)cc2)cc2c1OCCO2	4	2
17	CCOC(=O)c1cc(-c2ccc(N3CCN(C(=O)c4oc5ccccc5c4C)CC3)cc2)n(-c2ccccc2OC)n1	16	7
18	CCCCN(CC(=O)N(Cc1cccn1Cc1ccccc1)C1CCCCC1)C(=O)/C=C/c1ccccc1	21	26
19	Cc1nc(N2CCCCCCC2)ncc1C(C)NC(=O)c1ccnn1C (stereo not drawn)	7	6
20	CN1CCC(N(Cc2cccnc2)Cc2ccsc2)CC1	-3	-10
21	Cc1cc(C)nc(SCc2cc(=O)n3[nH]c(C)c(-c4ccccc4)c3n2)n1	-3	-3
22	CN(Cn1nc(C2CC2)n(C)c1=S)CC12CC3CC(CC(C3)C1)C2	-1	4
23	COc1ccc(-c2cc(C(=O)NCCc3ccc(OC)c(OC)c3)n3nc(C(C)(C)C)cc3n2)cc1	10	7
24	COc1cc(C(=O)NC(C)(C)C)cc(OC)c1C	-9	-12
25	O=C(NC1C[C@H]1c1ccccc1)N1CCN(C(c2ccccc2)c2ccccc2)CC1 (stereo partly drawn)	23	7
26	O=C(NCCN1CCOCC1)[C@@]1(OCc2cccc(C(F)(F)F)c2)CC(OCc2cccc(F)c2F)[C@H](O)[C@H](O)C1 (stereo partly drawn)	2	11
27	O=C1c2cccc([N+](=O)[O-])c2C(=O)N1c1cccc(Cl)c1Cl	6	7
28	CCCN(CCc1c[nH]c2ccc(NC(=O)C(c3ccccc3)c3ccccc3)cc12)CC1CC1	12	8
29	CCOCCn1c(N2CCC(Cc3ccccc3)CC2)nc2c1c(=O)[nH]c(=O)n2C	0	-2
30	Cc1onc(-c2ccccc2Cl)c1C(=O)Nc1ccc(C(=O)Nc2ccc(O)cc2)cc1	-15	-18

Following part:
cpd	compound	NPYLR7 ag	NPYLR7 ag max-min
31	COc1cn2c(cc1=O)C(=O)N(CCNC(=O)CC1CCCC1)CC2	21	16
32	COc1cccc(CN(CC(O)COc2ccccc2C)CC2CC(c3ccc(Cl)cc3)=NO2)c1 (stereo not drawn)	1	2
33	Cc1cc(C)cc(NC(=O)CSc2ccc3nnc(CCNC(=O)c4ccccc4)n3n2)c1	-2	-3
34	COc1cccnc1NC(=O)CNC(=O)OCC(F)(F)F	-2	-5
35	CCc1cccc(N2CC(C(=O)Nc3cccc(C)c3C)CC2=O)c1 (stereo not drawn)	1	0
36	O=C(NCCC1CC1)Nc1ccc(Oc2ccc(Cl)nn2)cc1	-2	40
37	CCCC(=O)Nc1ccc(Nc2ccc(-n3nc(C)cc3C)nn2)cc1	-6	-10
38	O=C(COc1ccc(Nc2ccccc2)cc1)OCC(=O)N1CCOCC1	1	-2
39	CC1(Cc2ccc(S(C)(=O)=O)cc2)C(=O)Nc2ccc(-c3ccsc3)cc21 (stereo not drawn)	16	12
40	COCC(=O)Nc1ccc(-c2c(-c3ccc(OC)cc3OC)nn(-c3cccc(C)c3)c2OC(C)=O)cc1	-1	8
41	CCn1c(C2CCCN(C(=O)c3ccc(-n4ccnc4)cc3)C2)nn(C)c1=O (stereo not drawn)	-2	3
42	CNC(=S)NNC(=O)CSCc1cccc(C)c1	0	-1
43	CCOC(=O)c1ccc(NC(=O)CN2C(=O)/C(=C\c3ccccc3)SC2=S)cc1	-5	-10
44	COc1ccc(CN2CCC3(CCNCC3)C2)cc1Cn1cncn1	0	-1
45	Cc1cc(NC(=O)c2cc(-c3ccco3)on2)no1	0	0
46	CC(C(=O)Nc1ccc(N2CCCCC2)cc1)n1c(=O)oc2ccccc21 (stereo not drawn)	1	4
47	Cc1cc(OC(=O)C2CCCC2)c([N+](=O)[O-])c(=O)[nH]1	4	2
48	O=C(/C=C/c1cccs1)N(CCN1CCOCC1)c1nc2ccc(Cl)cc2s1	16	15
49	COC(=O)C1=C(C)NC2=C(C(=O)CC(c3ccccc3)C2)C1c1ccc(C)cc1 (stereo not drawn)	3	1
50	COc1cccc(-n2nnc3c(=O)n(CC(=O)OCc4ccccc4)cnc32)c1	9	7
51	CC(C#N)OC(=O)c1ccc(Cl)cc1O (stereo not drawn)	-2	-4
52	Cc1cnc(NCC2CN(S(C)(=O)=O)CCO2)nc1N(C)C (stereo not drawn)	1&6	-2&-1
53	CC(=O)CSc1sc2c(O)cc(=O)[nH]c2c1C#N	13	10
54	CCOc1cccc2sc(N(CCCN(C)C)C(=O)c3ccco3)nc12	12	9
55	CCC1CN(C(=O)CNC(=O)N(C)C)CCC(=O)N1Cc1ccccc1 (stereo not drawn)	4	1
56	COc1ccc(S(=O)(=O)NCCCN2CCOCC2)cc1N1CCN(C(=O)CCCCCCl)CC1	17	13
57	CCC(C(=O)N(Cc1cc(NC(=O)c2ccco2)ccc1N(C)C)CC1CCCO1)c1ccccc1 (stereo not drawn)	-1	8
58	CN(Cc1cn2c3ccccc3n(C)c2n1)C12CC3CC(CC(C3)C1)C2	8	7
59	CCNC(=O)C1(C)CCCN(Cc2cc(C(F)(F)F)ccc2Cl)C1 (stereo not drawn)	-2	-3
60	CCOc1ccc(CN(C(=O)c2ccc(CO)cc2)C2CC2)cc1	-4	-7

(continued)
cpd	compound	NPYLR7 ag	NPYLR7 ag max-min
61	N#CC1(NC(=O)CCc2nc(-c3cccs3)no2)CCCCC1	5	4
62	Cc1ccc(NS(=O)(=O)c2ccc(N3CC(C(=O)O)CC3=O)cc2)c(Cl)c1 (stereo not drawn)	8	6
63	O=C(c1cccc([N+](=O)[O-])c1)N1CCN(c2nc(-c3cccs3)nc3cc(Cl)ccc23)CC1	17	15
64	O=C(c1ccc(-c2ccccc2)cc1)N1CCC2(CC1)SCCN2C(=O)c1ccc(C(F)(F)F)cc1	-11	-10
65	CC1(C)O[C@@H]2C[C@@](OCc3cccc(Cl)c3)(C(=O)NCc3ccco3)CC(OCc3c(F)cccc3F)[C@@H]2O1 (stereo partly drawn)	18	9
66	CCCNC(=O)N(Cc1nccn1Cc1ccc(Cl)cc1Cl)CC1CCCO1 (stereo not drawn)	16	14
67	O=C(O)C1=CCCCc2ccccc21	-7	-9
68	CC(C)c1ccc2c(c1)CCCN2CC(=O)Nc1nncs1	0	-2
69	CC(C)(C)C1CCc2c(sc3nc(SCC(N)=O)nc(N)c23)C1 (stereo not drawn)	13	6
70	CC(C)c1ccc(-c2nccn2CCn2ccnn2)cc1	8	5
71	NC(=O)c1nc(-c2ccccc2)nc2c1[nH]c(=O)n2-c1ccc(F)cc1	2	1
72	O=C(CNS(=O)(=O)c1ccc(OC(F)F)c(Cl)c1)N1CCCCC1	0	-2
73	CCc1nc2c(OCc3ccc(F)cc3)cccn2c1N(C)C(=O)C(C)C	-18	-3
74	Cn1c(=O)c2c(nc3n2CC(C(C)(C)C)=NN3Cc2ccc(Cl)cc2Cl)n(C)c1=O	-7	-1
75	Cc1ccc(N2CCCn3c2nc2c3c(=O)n(CCN3CCOCC3)c(=O)n2C)cc1C	-1	0
76	CCc1ccc(C(NC(=O)CN(C)S(C)(=O)=O)C(C)(C)C)o1 (stereo not drawn)	7	3
77	Cc1ccc2[nH]c(CCNC3CCN(Cc4ccco4)CC3)nc2c1C	11	8
78	CCOc1cc(S(=O)(=O)NCCCN2CCOCC2)ccc1Br	1	0
79	CCOC(=O)CN[C@@H]1C[C@@H]2CO[C@H](C(C)C)C[C@@H]2C1	-4	-1
80	COc1cc2c(cc1OC)C(C(C)C)N(C(=O)c1c(-c3ccccc3)noc1C)CC2 (stereo not drawn)	10	0
81	COc1cccc(CN2C(=O)NC(C)(C3CCN(C(=O)c4sccc4Cl)CC3)C2=O)c1OC (stereo not drawn)	2	-1
82	Cn1c(=O)c2c(nc3n2CC(C(C)(C)C)=NN3Cc2cccc3ccccc23)n(C)c1=O	7	10
83	COc1cn(CC(=O)NCc2ccccc2Cl)c(CN2CCN(c3ccccc3)CC2)cc1=O	-1	-3
84	O=C1CCC(C(=O)N2CCN(C3CCCC3)C(=O)C2)CN1CCN1CCOCC1 (stereo not drawn)	5	5
85	O=S(=O)(c1ccccc1)c1ccc2c(c1)Oc1ccccc1N2	7	3
86	CC1CN(Cc2csc(-c3ncccn3)n2)c2ccccc2O1 (stereo not drawn)	5	1
87	O=C(COc1ccccc1)NCC1=CCCN(C2C=CCCC2)C1 (stereo not drawn)	2	-6
88	CCOC(=O)CN1CCN(c2ccc(Cl)cc2Cl)C(=O)C1C (stereo not drawn)	0	-1
89	CC(C)Oc1cc(N2CCOC(C(F)(F)F)C2)nc(N)n1 (stereo not drawn)	3	2
90	CSCC1CCN(CCC(=O)Nc2cc(N)ccc2F)C1 (stereo not drawn)	0	-1

Other structures:
Order of values: NPYLR7 ag, NPYLR7 ag max-min
91	COc1ccccc1CCNC(=O)c1coc(CN2CCN(Cc3ccc([N+](=O)[O-])cc3)CC2)n1
  10, 10
92	CS(=O)(=O)Nc1nc(CC(=O)NC2CCS(=O)(=O)C2)cs1 (stereo not drawn)
  -3, -7
93	Fc1ccccc1-c1cn(-c2ccccc2)c2[n+]1CCCS2
  4, 1
94	Cc1nc2ncnc(N)n2n1
  -6, -14
95	O=S(=O)(NCc1nnnn1C1CCCCC1)c1ccccc1
  0, -2
96	O=C(CCc1ncc(-c2ccccc2)o1)N1CCN(S(=O)(=O)c2ccc(F)c(Cl)c2)CC1
  3, 13
97	Nc1ccccc1COc1ccccc1
  12, 6
98	CCc1nc(SCC(=O)NC2CCCCC2)c2oc3ccccc3c2n1
  6, 3
99	Cc1[nH]c2ccc(CNC(=O)CCc3nc4cccnc4n3C)cc2c1C
  1, 27
100	Cc1nc2c(OCc3cccc(Cl)c3)cccn2c1N(C)Cc1cccs1
  12, 9
101	Cc1ccc(-c2cc(C(=O)N3Cc4cnn(CCO)c4C3)n[nH]2)s1
  -6, -10
102	CCCn1nc(C(=O)N(CC)C2CCS(=O)(=O)C2)c2ccccc2c1=O (stereo not drawn)
  -1, -1
103	NC(=O)NCCN1CCCC(C(=O)c2ccc(Oc3ccccc3)cc2)C1 (stereo not drawn)
  -7, -7
104	COc1cccc(-c2nn(-c3ccccc3)cc2CN(C)C(C)c2ccon2)c1 (stereo not drawn)
  6, 5
105	N#CCCNC(=O)CSc1nnc(Nc2ccccc2F)s1
  0, 0
106	Cc1cc(C)cc(N=CC(C#N)c2nc(-c3ccc(F)cc3)cs2)c1 (stereo not drawn)
  0, -3
107	COc1ccc(-c2cc(-c3ccccc3)nc(SC)c2C#N)cc1
  -1, -8
108	Cc1cccc(-n2nnc3c(=O)n(CC(=O)N4CCCc5ccccc54)cnc32)c1
  -2, -9
109	COc1ccc(-c2nc(C(=O)N(Cc3ccco3)Cc3cc4c(cc3Cl)OCO4)cs2)cc1
  -4, -9
110	CC(CN1CCN(C)CC1)NC(=O)NCC1(c2ccccc2F)CC1 (stereo not drawn)
  7, 3

The results go on.
Order of values: NPYLR7 ag, NPYLR7 ag max-min
111	O=C(Nc1cccc(-c2cccc(-c3ccc4c(c3)OCCO4)n2)c1)N1c2ccccc2Sc2ccccc21
  13, 19
112	COc1cccc(CC2CN(Cc3nc(C(C)C)no3)CCO2)c1 (stereo not drawn)
  3, 0
113	COCCN(Cc1nccn1Cc1c(F)cccc1Cl)S(=O)(=O)c1ccc(C)cc1
  19, 31
114	CCOc1ccc(N=c2scc(C)n2N2CCOCC2)cc1
  -7, -11

Bioassay records from PubChem BioAssay.

Some of the compounds tested; rates above refer to the full screens.
